# NOMO-1 viab: STK33 inhibitor candidate reducing NOMO-1 cell viability; 7.5% of 37,000 active; inhibition, % (test concentration not listed); NOMO-1 AML viability, CellTiter-Glo luminescence, 72 h;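 active = most replicates above 80%; inconclusive = exactly half above 80%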;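 also: wells of about 30 µL received 25 nL stock; 0% = median of vehicle wells and 100% = reference inhibitor level; the first replicate is given; inactives centre near 10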
# * = called active by the depositor; ? = inconclusive. Some of the compounds tested, so the mix of outcomes need not match the whole.
compound	NOMO-1 viab
COc1ccc(NC(=O)N(C)C[C@H]2Oc3c(NC(=O)C4CCOCC4)cccc3C(=O)N([C@@H](C)CO)C[C@@H]2C)cc1	16
O=C(Nc1cccnc1)C1CC(c2cccc(Br)c2)=NO1 (configuration not stated)	12
Cc1ccc(N(CC(=O)Nc2c(C)n(C)n(-c3ccccc3)c2=O)S(C)(=O)=O)cc1Cl	9
COc1ccc(S(=O)(=O)Nc2ccc3c(c2)CC(=O)N([C@@H](C)CO)C[C@@H](C)[C@@H](CN(C)C(=O)Nc2ccc(F)cc2)O3)cc1	10
C[C@H]1CN([C@@H](C)CO)C(=O)c2cccc(NC(=O)c3cnccn3)c2O[C@@H]1CN(C)C(=O)NC1CCCCC1	11
COc1ccc(S(=O)(=O)N(C)C[C@H]2Oc3ccc(NS(=O)(=O)c4ccc(C)cc4)cc3C(=O)N([C@@H](C)CO)C[C@@H]2C)cc1	24
CC(C)NC(=O)Nc1ccc2c(c1)CC(=O)N([C@H](C)CO)C[C@H](C)[C@H](CN(C)Cc1ccc(Oc3ccccc3)cc1)O2	?
C[C@H](CO)N1C[C@H](C)[C@H](CN(C)Cc2ccc(C(=O)O)cc2)Oc2ccc(NC(=O)Nc3ccc(C(F)(F)F)cc3)cc2C1=O	-15
CC(C)NC(=O)N(C)C[C@@H]1Oc2ccc(NC(=O)Nc3cccc4ccccc34)cc2CC(=O)N([C@H](C)CO)C[C@H]1C	-8
C[C@@H]1CN([C@H](C)CO)C(=O)c2cc(NC(=O)Nc3ccc4c(c3)OCO4)ccc2O[C@H]1CN(C)Cc1ccc2c(c1)OCO2	-3
Cc1cc(OCC(=O)Nc2ccc(O)cc2C(=O)O)cc(C)c1Cl	-29
Cc1ccc(S(=O)(=O)Nc2ccc3c(c2)CC(=O)N([C@@H](C)CO)C[C@@H](C)[C@@H](CN(C)Cc2ccncc2)O3)cc1	2
C[C@@H]1CCCCO[C@@H](CN(C)C(=O)Nc2ccc(C(F)(F)F)cc2)[C@@H](C)CN([C@H](C)CO)C(=O)c2cc(NC(=O)c3ccccc3)ccc2O1	91*
Cc1ccc(S(=O)(=O)Nc2ccc3c(c2)C(=O)N([C@H](C)CO)C[C@@H](C)[C@H](CN(C)Cc2ccc(C(=O)O)cc2)O3)cc1	16
C[C@H](CO)N1C[C@H](C)[C@@H](CN(C)S(=O)(=O)c2ccc(Cl)cc2)Oc2ccc(NC(=O)CCC(F)(F)F)cc2C1=O	2
COc1ccc(NC(=O)CSc2nnnn2-c2ccc(OC)cc2)cc1	4
C[C@@H]1CCCCO[C@@H](CN(C)Cc2ccccc2)[C@@H](C)CN([C@H](C)CO)C(=O)c2cc(NC(=O)Nc3ccc(C(F)(F)F)cc3)ccc2O1	115*
CC(C)NC(=O)N(C)C[C@H]1OCCCC[C@@H](C)Oc2ccc(NC(=O)NC3CCCCC3)cc2C(=O)N([C@H](C)CO)C[C@@H]1C	-13
COc1ccc(-c2nn(C)c(=O)c3ccccc23)cc1CNC(=O)Nc1ccccc1	-7
COc1cc(C)c2c(c1)CCC1C2CCC2(C)C(O)CCC12 (configuration not stated)	91*
C[C@@H]1CN([C@H](C)CO)C(=O)c2cccc(NC(=O)NC3CCCCC3)c2O[C@H]1CN(C)CC1CCCCC1	104*
C[C@H]1CN([C@@H](C)CO)C(=O)Cc2cc(NS(=O)(=O)c3cn(C)cn3)ccc2O[C@@H]1CN(C)Cc1ccc2c(c1)OCO2	26
CC(=O)c1cc2ccccc2oc1=O	4
C[C@@H]1CN([C@H](C)CO)C(=O)Cc2cc(NC(=O)NC3CCCCC3)ccc2O[C@@H]1CN(C)S(=O)(=O)c1ccc(F)cc1	-1
COc1cc(NC(=O)CCN2CCN(C)CC2)cc(OC)c1	9

# (more compounds)
compound	NOMO-1 viab
COc1ccc(NC(=O)Nc2cccc3c2O[C@H](CN(C)CC2CCCCC2)[C@H](C)CN([C@@H](C)CO)C3=O)cc1	-4
COc1cc(S(C)=O)ccc1-c1nc2ccncc2[nH]1 (configuration not stated)	17
Cc1ccc(CNC(=O)c2cccc(Cn3cc(Cl)cn3)c2)cc1	-11
C[C@H](CO)N1C[C@H](C)[C@@H](CN(C)S(=O)(=O)c2ccccc2)Oc2ccc(NS(=O)(=O)c3ccc(Cl)cc3)cc2C1=O	27
CS(=O)(=O)N(CC(=O)Nc1cccc([N+](=O)[O-])c1)Cc1ccc(Cl)cc1	-21
Cc1cc(C(F)(F)F)nc(SCC(=O)N2c3ccccc3Sc3ccccc32)n1	1
CCOC(=O)CCc1ccc(OCc2ccccc2)c(I)c1	17
COc1ccc(S(=O)(=O)N(C)CC(=O)Nc2ccccc2Br)cc1C	6
COc1cc(/C=C/C=O)cc(OC)c1OC	13
C=CCSc1ncc2c(=S)[nH]c(=S)[nH]c2n1	12
C[C@@H]1CN([C@H](C)CO)C(=O)c2cccc(NS(C)(=O)=O)c2O[C@H]1CN(C)Cc1ccc(C(=O)O)cc1	9
CCC(Sc1nncn1C)C(=O)Nc1ccc([N+](=O)[O-])cc1 (configuration not stated)	27
COc1ccc(NC(=O)N(C)C[C@H]2Oc3ccc(NC(=O)Nc4ccc(F)cc4)cc3CC(=O)N([C@H](C)CO)C[C@H]2C)cc1	-10
c1ccc(N=c2scc(-c3cccs3)n2-c2ccccc2)cc1	33
CNC[C@H]1Oc2c(NC(=O)C3CC3)cccc2C(=O)N([C@@H](C)CO)C[C@@H]1C	15
O=C(Nc1c(C(=O)N2CCCCC2)cnn1-c1ccccc1)c1ccccc1	-20
O=C(CSc1nc2ccccc2c(=O)[nH]1)Nc1ccc2c(c1)OCCO2	9
CCOc1ccc(C(=O)N2CCCC2)cc1	-15
Cc1ccc(S(=O)(=O)N(C)/N=C/c2cccc(Br)c2)cc1	42
Cn1c(SCC(=O)Nc2cccc(C(=O)O)c2)nnc1-c1cc2cc(Br)ccc2o1	-9
C[C@H](CO)N1C[C@H](C)[C@H](CN(C)Cc2ccc(Oc3ccccc3)cc2)Oc2ccc(NC(=O)Nc3ccccc3)cc2C1=O	44
C[C@H]1CN([C@@H](C)CO)C(=O)c2cc(NC(=O)c3ccncc3)ccc2O[C@@H]1CN(C)S(C)(=O)=O	3
O=c1c2c(nc3nc(NCc4cccc([N+](=O)[O-])c4)[nH]n13)CCC2	28
CCCC(NS(=O)(=O)c1ccc(C)cc1)C(=O)O (configuration not stated)	0
CNc1nc(OCC#N)nc(N2CCCCC2)n1	12

# Next part:
compound	NOMO-1 viab
COc1ccc(S(=O)(=O)Nc2ccc3c(c2)CC(=O)N([C@@H](C)CO)C[C@@H](C)[C@@H](CN(C)C)O3)cc1	0
O=c1cc(-c2ccc(O)c(O)c2)oc2c(C3OC(CO)C(O)C(O)C3O)c(O)cc(O)c12 (configuration not stated)	2
O=C(OCCn1ncc2ccccc2c1=O)c1ccc(F)cc1Cl	-7
Oc1ccc(Br)cc1C=NCC12CCC3CC(CC(C3)C1)C2	90*
COc1ccc(S(=O)(=O)N(C)C[C@@H]2Oc3ccc(NS(=O)(=O)c4cccs4)cc3CC(=O)N([C@H](C)CO)C[C@H]2C)cc1	20
C[C@@H]1CCCCO[C@@H](CN(C)Cc2ccc(C(=O)O)cc2)[C@@H](C)CN([C@H](C)CO)C(=O)c2cc(NS(C)(=O)=O)ccc2O1	2
Cc1noc(C)c1NC(=O)Nc1cccc2c1O[C@H](CN(C)CC1CCCCC1)[C@@H](C)CN([C@H](C)CO)C2=O	3
CNC[C@H]1Oc2c(NC(=O)c3cc(C)nn3C)cccc2C(=O)N([C@@H](C)CO)C[C@H]1C	6
COc1ccc(CN(C)C[C@@H]2OCCCC[C@@H](C)Oc3ccc(NC(=O)NC4CCCCC4)cc3C(=O)N([C@H](C)CO)C[C@@H]2C)cc1	5
COc1ccc(S(=O)(=O)Nc2ccc3c(c2)C(=O)N([C@H](C)CO)C[C@H](C)[C@H](CN(C)S(=O)(=O)c2ccc(F)cc2)O3)cc1	37
C[C@H](CO)N1C[C@H](C)[C@@H](CN(C)S(C)(=O)=O)Oc2c(NC(=O)c3ccncc3)cccc2C1=O	15
C=CC[C@]12C[C@@H](OC)C(=O)C(OC)=C1O[C@@H](c1cc(OC)c3c(c1)OCO3)[C@@H]2C	33
C[C@@H]1CN([C@H](C)CO)C(=O)Cc2cc(NC(=O)Nc3ccc(C(F)(F)F)cc3)ccc2O[C@H]1CN(C)C(=O)NC1CCCCC1	14
CC(C)NC(=O)Nc1ccc2c(c1)CC(=O)N([C@@H](C)CO)C[C@H](C)[C@@H](CN(C)C(=O)NC(C)C)O2	23
CCS(=O)(=O)c1nc2ccccc2n1CC(N)=O	8
CCn1c(SCC(=O)Nc2ccccc2F)nnc1-c1cccc(N)c1	-6
COc1ccc(NC(=O)CN(c2ccccc2Cl)S(C)(=O)=O)c(OC)c1	-12
C[C@@H]1CN([C@H](C)CO)C(=O)c2cc(NC(=O)C3CCCCC3)ccc2O[C@H]1CN(C)Cc1ccc2c(c1)OCO2	8
COc1ccc(NC(=S)N(C)Cc2c(C)nn(C)c2C)c(OC)c1	12
C[C@@H]1O[C@@H](Oc2cc(O)c3c(=O)c(-c4ccc(O)cc4)coc3c2)[C@H](O)[C@H](O)[C@H]1O	5
CSc1c(C#N)c(-c2cccs2)nn1CNC(=O)Nc1ccccc1C(F)(F)F	26
C[C@H]1CN([C@@H](C)CO)C(=O)c2cc(NC(=O)Cn3cnnn3)ccc2O[C@H]1CN(C)S(C)(=O)=O	9
COC(=O)c1ccccc1NC(=O)C(C)NS(=O)(=O)c1cc(Cl)ccc1Cl (configuration not stated)	40
N#Cc1c(NC(=O)CSc2nnc3c(n2)[nH]c2ccccc23)sc2c1CCCC2	31
COc1ccc(S(=O)(=O)N(C)CC(=O)Nc2ccccc2OC)cc1Cl	12

# Rewritten with each value named: part of the list above.
COc1ccc(NC(=S)N(C)Cc2c(C)nn(C)c2C)c(OC)c1
  NOMO-1 viab: 12

C[C@@H]1O[C@@H](Oc2cc(O)c3c(=O)c(-c4ccc(O)cc4)coc3c2)[C@H](O)[C@H](O)[C@H]1O
  NOMO-1 viab: 5

CSc1c(C#N)c(-c2cccs2)nn1CNC(=O)Nc1ccccc1C(F)(F)F
  NOMO-1 viab: 26

C[C@H]1CN([C@@H](C)CO)C(=O)c2cc(NC(=O)Cn3cnnn3)ccc2O[C@H]1CN(C)S(C)(=O)=O
  NOMO-1 viab: 9

# Later entries
compound	NOMO-1 viab
C[C@@H]1CN([C@@H](C)CO)C(=O)c2cccc(N(C)C)c2O[C@@H]1CN(C)Cc1ccc2c(c1)OCO2	6
COc1ccc(-c2noc(CN(C(C)C)S(=O)(=O)c3ccccc3)n2)cc1	37
Cc1noc(C)c1S(=O)(=O)N(C)C[C@H]1Oc2ccc(NC(=O)NC3CCCCC3)cc2CC(=O)N([C@H](C)CO)C[C@H]1C	7
COc1ccc(S(=O)(=O)Nc2ccc3c(c2)C(=O)N([C@H](C)CO)C[C@@H](C)[C@H](CN(C)S(=O)(=O)c2cn(C)cn2)O3)cc1	14
CNC[C@H]1Oc2ccc(NC(=O)C3CC3)cc2CC(=O)N([C@@H](C)CO)C[C@@H]1C	-9
COc1ccc(S(=O)(=O)N(CC(=O)O)C2CCCCC2)cc1Cl	-12
C[C@@H]1CN([C@H](C)CO)C(=O)c2cc(NC(=O)Cn3cnnn3)ccc2O[C@@H]1CN(C)C(=O)NC1CCCCC1	7
CN1C(=O)N(c2ccc(Cl)cc2)C(C)(O)CC1(C)C (configuration not stated)	-7
C[C@@H]1CN([C@@H](C)CO)C(=O)c2cccc(NS(=O)(=O)c3ccccc3)c2O[C@@H]1CN(C)S(=O)(=O)c1ccccc1	20
COc1ccc(NC(=O)N(C)C[C@H]2Oc3c(NS(=O)(=O)c4cn(C)cn4)cccc3C(=O)N([C@@H](C)CO)C[C@H]2C)cc1	8
C[C@@H]1CN([C@H](C)CO)C(=O)c2cccc(NC(=O)Nc3cccc4ccccc34)c2O[C@@H]1CN(C)C(=O)Nc1ccc(F)cc1	97*
Cc1ccc(S(=O)(=O)N(C)C[C@H]2Oc3c(NC(=O)c4ccc(-c5nccs5)cc4)cccc3C(=O)N([C@@H](C)CO)C[C@H]2C)cc1	6
Oc1c(C(Nc2ccccn2)c2cccc(OC3CCCC3)c2)ccc2cccnc12 (configuration not stated)	114*
COc1ccc(C)cc1NC(=O)CN(c1ccc(F)cc1)S(C)(=O)=O	39
C[C@H]1CN([C@@H](C)CO)C(=O)c2cccc(NC(=O)CCCCCC(=O)Nc3ccccc3N)c2O[C@H]1CN(C)Cc1ccc(-c2ccccc2)cc1	122*
CCC(C)NC(=O)Cn1cnc2c1c(=O)n(C)c(=O)n2C (configuration not stated)	10
O=C(CSc1nc2sc3c(c2c(=O)n1C1CCCCC1)CCCC3)Nc1ccccc1	6
Cc1sc2nc3c4ccccc4c(N4CCC(C)CC4)nn3c(=O)c2c1C	26
C[C@H](CO)N1C[C@H](C)[C@H](CN(C)S(=O)(=O)c2ccccc2)Oc2ccc(NC(=O)C3CCCCC3)cc2CC1=O	15
COc1ccc(S(=O)(=O)Nc2ccc3c(c2)CC(=O)N([C@H](C)CO)C[C@H](C)[C@H](CN(C)C(=O)NC(C)C)O3)cc1	14
O=C(CSc1nnc(-c2ccccc2O)n1-c1ccccc1)Nc1ccc(Cl)c(C(=O)O)c1	0
C[C@@H]1CN([C@@H](C)CO)C(=O)c2cc(NC(=O)CCC(F)(F)F)ccc2O[C@@H]1CN(C)Cc1ccccc1	14

# Given as labelled records: part of the list above.
C[C@@H]1CCCCO[C@@H](CN(C)Cc2ccccc2)[C@@H](C)CN([C@H](C)CO)C(=O)c2cc(NC(=O)Nc3ccc(C(F)(F)F)cc3)ccc2O1
- NOMO-1 viab: 115*
CC(C)NC(=O)N(C)C[C@H]1OCCCC[C@@H](C)Oc2ccc(NC(=O)NC3CCCCC3)cc2C(=O)N([C@H](C)CO)C[C@@H]1C
- NOMO-1 viab: -13

# Screening data: PubChem, Broad Institute
